miR-21 reporter = miR-21 reporter, rising signal; HeLa miR-21 FLuc reporter, luciferase, 48 h; Potency, µM (highest dose often 38.3 µM), for the others: top-dose reporter change, positive = more light; 340,000 tested, under 10 active; active = well fitted rising curve with a large enough effect; inconclusive = small, poorly fitted or top-dose-only effect; inactive = no such curve, though single readings can be large or run the other way;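 also: % of control where 0% means no effect; miR-21 action dims this reporter so a rising signal means less miR-21 action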
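HeLa cells stably expressing CMV-driven firefly luciferase with a downstream miR-21 binding sequence, endogenously expressing miR-21, were treated with titrations (up to about 40uM final) for 48 hours at 37 degree Celsius. Luciferase luminescence was read after lysis.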
Rango complex inh = Rango-importin beta binding inhibition; Rango CFP/YFP FRET sensor + importin beta, 45 min; actives 0.031% (n = 340,000); Potency, µM (highest dose often 92.2 µM), without a hit: at the top dose inhibition of complex formation; Q14974; active = rising FRET ratio curve, often small or poorly fitted; inconclusive = mostly compound fluorescence or quenching in the first reads; inactive = flat curves in all reads;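 also: potency is read from the fitted curve at half-maximal effect; 0% = DMSO wells and 100% = buffer wells lacking importin beta; nearly all actives have a fitted effect of over 15% in size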
Target sequence (Q14974 whole entry, looked up): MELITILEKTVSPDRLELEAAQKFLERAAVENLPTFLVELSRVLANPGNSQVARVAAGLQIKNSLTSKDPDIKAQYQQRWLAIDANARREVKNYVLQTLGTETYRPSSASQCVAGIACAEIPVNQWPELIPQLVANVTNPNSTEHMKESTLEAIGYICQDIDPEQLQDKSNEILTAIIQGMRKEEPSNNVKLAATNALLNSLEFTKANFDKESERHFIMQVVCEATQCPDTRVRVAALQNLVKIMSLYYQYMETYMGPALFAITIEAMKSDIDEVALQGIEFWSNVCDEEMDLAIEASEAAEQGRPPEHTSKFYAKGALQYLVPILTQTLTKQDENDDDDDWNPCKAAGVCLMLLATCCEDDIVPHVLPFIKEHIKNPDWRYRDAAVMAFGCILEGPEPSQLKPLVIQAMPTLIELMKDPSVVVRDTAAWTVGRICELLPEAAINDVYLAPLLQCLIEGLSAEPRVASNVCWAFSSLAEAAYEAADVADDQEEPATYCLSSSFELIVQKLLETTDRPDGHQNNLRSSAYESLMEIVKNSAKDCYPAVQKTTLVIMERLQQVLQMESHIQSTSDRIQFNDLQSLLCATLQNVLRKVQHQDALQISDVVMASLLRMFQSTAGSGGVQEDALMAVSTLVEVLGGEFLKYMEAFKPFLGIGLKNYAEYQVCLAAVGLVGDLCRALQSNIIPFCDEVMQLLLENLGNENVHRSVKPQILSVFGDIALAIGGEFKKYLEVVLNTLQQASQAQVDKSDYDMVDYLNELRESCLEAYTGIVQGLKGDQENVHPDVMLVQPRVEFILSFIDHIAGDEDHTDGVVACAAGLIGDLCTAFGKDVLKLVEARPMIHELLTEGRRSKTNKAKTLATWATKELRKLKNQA
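Inhibition scored from the CFP 486 nm/YFP 530 nm FRET ratio 45 min after adding 0.125 microM importin beta to 50 nM Rango biosensor preincubated 5 min with compound (room temperature, PBS with DTT, Tween-20, BSA). No-importin wells as positive control.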
Rango dissoc inh = prevents RanGTP from dissociating the Rango-importin beta complex. O95149+P62826. AID 540253. actives 0.071% (n = 340,000). Potency, µM (titrated, usually from 46.1 µM), for the others: at the highest dose activity change, negative = inhibition. Biochemical FRET Rango-importin beta, RanGTP-induced dissociation; active means falling FRET ratio curve, often poorly fitted, with flat reads before Ran was added; inconclusive means other falling curves, or compound fluorescence or quenching; inactive means flat or rising ratio curve;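 also: potency is read from the fitted curve at half-maximal effect; % of control where 0% means no effect; nearly all actives have a fitted effect of over 45% in size; -100% = wells without RanGTP and RCC1; the record marks most hits as doubtful in a second field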
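Two FRET readings bracket the reaction: one 5 min after compound meets Rango–importin beta, another 45 min after RanGTP-RCC1 (0.6 uM Ran, 0.2 uM RCC1, 2 mM GTP) is added. Only the second defines inhibition.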
GLA inh pH 4.5 = alpha-galactosidase A (human) inhibition, pH 4.5 | 230,000 tested, under 10 active | purified enzyme, 4-MU-alpha-Gal fluorescence, pH 4.5 | P06280 | activity change, negative = inhibition, % at 105 µM; inconclusive = small, poorly fitted or top-dose-only inhibition, or a rising curve; inactive = flat fitted curve, though single readings scatter; no compound was filed as active;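 also: 0% = full activity with enzyme and -100% = basal without enzyme; dose as in the result columns while the protocol names 77 µM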
Active calls of the source: *; ? = inconclusive; . = not tested or not shown; & = joins results of further samples; [ ] = remark or other dose. This is a subset. The share of hits here may be higher or lower than overall.

Preview (10 entries):
Screens by letter: A = miR-21 reporter; B = Rango complex inh; C = Rango dissoc inh; D = GLA inh pH 4.5
Cc1cc(-c2ccc(C(C)C)c(S(=O)(=O)N3CCOc4ccccc43)c2)on1
  A: 17%; B: -1.4%; C: -12%; D: .

Cn1c(NC(=O)C2CCCC2)cc(=O)n(C)c1=O
  A: -14%; B: -0.6%; C: 25%; D: 4

O=c1c2cc(Br)ccc2nc(-c2ccc(Cl)cc2)n1O
  A: -6%; B: 3.0%; C: 1%; D: .

COc1ccc(C(=O)COc2ccc3ccc(=O)oc3c2)cc1
  A: -3%; B: 0.3%; C: -5%; D: -4

O=C(CNC(=O)c1ccc(Br)o1)NNC(=O)c1n[nH]c(=O)c2ccccc12
  A: .; B: 1.4%; C: -1%; D: .

N#Cc1c(NC(=O)CSc2ncccn2)oc(-c2ccccc2)c1-c1ccccc1
  A: .; B: -2.1%; C: -4%; D: .

CC1(C)COCN1C(=O)c1ccc(Cl)c(Cl)c1
  A: 0%; B: 2.2%; C: 9%; D: -3

CCC(=O)n1nc(-c2cccnc2)nc1NCc1ccc(F)cc1
  A: -1%&-3%; B: 4.0%; C: -14%; D: 1[21.1 µM]

C[C@@H](O)C1NC(=O)[C@H](CCCCN)NC(=O)c2cc([N+](=O)[O-])cc(F)c2NCCCC[C@@H](C(N)=O)NC1=O (stereo not given in full)
  A: -6%; B: 10%; C: -2%; D: -1

Cn1cc(SCC(=O)O)c2ccccc21
  A: 1%; B: -0.2%; C: -12%; D: 1

The listing, previewed entries included:
Screens by letter: A = miR-21 reporter; B = Rango complex inh; C = Rango dissoc inh; D = GLA inh pH 4.5
Cc1cc(-c2ccc(C(C)C)c(S(=O)(=O)N3CCOc4ccccc43)c2)on1
  A: 17%; B: -1.4%; C: -12%; D: .

Cn1c(NC(=O)C2CCCC2)cc(=O)n(C)c1=O
  A: -14%; B: -0.6%; C: 25%; D: 4

O=c1c2cc(Br)ccc2nc(-c2ccc(Cl)cc2)n1O
  A: -6%; B: 3.0%; C: 1%; D: .

COc1ccc(C(=O)COc2ccc3ccc(=O)oc3c2)cc1
  A: -3%; B: 0.3%; C: -5%; D: -4

O=C(CNC(=O)c1ccc(Br)o1)NNC(=O)c1n[nH]c(=O)c2ccccc12
  A: .; B: 1.4%; C: -1%; D: .

N#Cc1c(NC(=O)CSc2ncccn2)oc(-c2ccccc2)c1-c1ccccc1
  A: .; B: -2.1%; C: -4%; D: .

CC1(C)COCN1C(=O)c1ccc(Cl)c(Cl)c1
  A: 0%; B: 2.2%; C: 9%; D: -3

CCC(=O)n1nc(-c2cccnc2)nc1NCc1ccc(F)cc1
  A: -1%&-3%; B: 4.0%; C: -14%; D: 1[21.1 µM]

C[C@@H](O)C1NC(=O)[C@H](CCCCN)NC(=O)c2cc([N+](=O)[O-])cc(F)c2NCCCC[C@@H](C(N)=O)NC1=O (stereo not given in full)
  A: -6%; B: 10%; C: -2%; D: -1

Cn1cc(SCC(=O)O)c2ccccc21
  A: 1%; B: -0.2%; C: -12%; D: 1

O=C(CNC(=O)c1ccc(Cl)cc1Cl)OCc1nc2ccccc2s1
  A: -13%; B: -2.2%; C: -11%; D: 1

NC(=O)CC(NC(=O)c1cccc(Br)c1)c1ccc(NCC2CC2)c([N+](=O)[O-])c1 (stereo not given)
  A: -2%; B: 2.4%; C: 22%; D: .

CC(C)(O)C#Cc1ccc(C(=O)NC(CCCNC(N)=O)C(=O)O)s1 (stereo not given)
  A: -6%; B: 1.1%; C: 2%; D: -6

O=C(O)CC(Cn1[nH]nnc1=S)c1ccccc1 (stereo not given)
  A: 1%; B: -0.2%; C: -2%; D: 1

Cc1cc(C)c2c(c1)cc(C)c1nnc(SCC(=O)Nc3ccccc3N3CCOCC3)n12
  A: -18%; B: 3.8%; C: -16%; D: -12

Cc1ccc(NC(=S)NCCC2=CCCCC2)cc1
  A: -38%; B: 0.2%; C: -18%; D: -7

O=C(Cc1ccc([N+](=O)[O-])cc1)NCc1ccc2c(c1)OCO2
  A: -9%; B: -4.8%; C: -7%; D: 2

C=C(C)Cn1c(-c2ccc(OC)cc2)nc2ccccc21
  A: -11%; B: 0.5%; C: -3%; D: -12

Cc1cnc(NC(=O)c2cc3c(s2)CCCC3)s1
  A: 20%; B: -0.5%; C: 4%; D: -19

CC(NC(=O)c1cccs1)C(c1cccs1)N1CCN(c2ccccc2)CC1 (stereo not given)
  A: 8%; B: -1.6%; C: -20%; D: 6

CC(C)(C)c1ccc(CN2N=C(/C=C/c3ccccc3)CCC2=O)cc1
  A: 2%; B: 1.7%; C: 0%; D: -21

O=C(CCCN1C(=O)c2ccccc2C1=O)N1CCCCC1
  A: -7%; B: -3.4%; C: 6%; D: -6

COc1ccc(-c2ncccc2OC(=O)C23CC4CC(CC(C4)C2)C3)cc1OC
  A: -8%; B: 2.4%; C: 4%; D: 1

COC(=O)c1c(NC(=O)c2cccc([N+](=O)[O-])c2)sc(C(N)=O)c1C
  A: 6%; B: -3.8%; C: 5%; D: -1

O=C(COc1ncnc2ccccc12)Nc1cc([N+](=O)[O-])ccc1F
  A: 0%; B: 2.0%; C: -7%; D: -7

N/C(=N\OC(=O)c1ccc(F)cc1)c1cccc([N+](=O)[O-])c1
  A: -34%; B: 5.6%; C: 19%; D: .

COc1ccc(N2CCN(S(=O)(=O)CCNC(=O)COc3ccccc3)CC2)cc1
  A: .; B: 2.4%; C: 6%; D: .

O=C1COc2ccc(S(=O)(=O)CCC(=O)N3CCN(c4cccc(C(F)(F)F)c4)CC3)cc2N1
  A: 26%; B: -5.0%; C: 15%; D: .

Cc1cc(C)cc(N(C(=O)c2ccc(Br)o2)C2C=CS(=O)(=O)C2)c1 (stereo not given)
  A: 1%; B: 1.7%; C: 21%; D: -3

O=C(CN1C(=O)NC2(CCCC2)C1=O)Nc1cccc(-c2nnc3n2CCCCC3)c1
  A: -3%; B: 0.8%; C: 10%; D: 2

O=S(=O)(c1cc(F)ccc1F)N1CCN(C2CCCCC2)CC1
  A: -3%; B: 2.0%; C: -8%; D: .

Cc1cc(OCC(=O)N2CCC(O)CC2)c2c(C)cc(=O)oc2c1
  A: 4%; B: 1.0%; C: -11%; D: .

O=C(OCCN1C(=O)c2ccccc2C1=O)[C@@H]1CC(O)CN1S(=O)(=O)c1ccccc1[N+](=O)[O-] (stereo not given in full)
  A: .; B: -2.3%; C: -6%; D: .

Cc1ccc(C(=O)COc2cccc(NC(=O)c3ccco3)c2)cc1
  A: -8%; B: -5.3%; C: 10%; D: 1

COc1ccc(-c2n[nH]c3c2CN(C(=O)c2ccccc2)CC3)cc1
  A: 0%; B: -3.7%; C: -3%; D: .

CCOC(=O)N1CCN(S(=O)(=O)c2ccc3c(c2)SCC(=O)N3)CC1
  A: 3%; B: -0.6%; C: -2%; D: -8

Cc1ccc(Nc2nnc(SCC(=O)Nc3ncc(S(=O)(=O)c4ccc([N+](=O)[O-])cc4)s3)s2)cc1
  A: -13%; B: -0.8%; C: 1%; D: -7

CCOC(=O)c1cnc2c(c(C)nn2C)c1Oc1ccc(Cl)cc1
  A: -1%; B: -3.7%; C: 3%; D: -7

CCOC(=O)Cc1csc(SCC(=O)NC2CCCC(C)C2C)n1 (stereo not given)
  A: 1%; B: -2.4%; C: -9%; D: 8

COC(=O)c1ccc(Cn2nc(-c3ccc(C)c(C)c3)ccc2=O)cc1
  A: -18%&-14%; B: 3.3%; C: 20%; D: .

O=C(Nc1ccc(Oc2cccnc2)cc1)C1CCN(Cc2ccccc2)CC1
  A: 9%; B: ?; C: -3%; D: .

O=C(COC(=O)CSc1ccc([N+](=O)[O-])cc1)NCCc1ccccc1
  A: .; B: 1.7%; C: 2%; D: .

CCCC1(C(=O)OCC)NC(c2ccc(O)cc2)C2C(=O)N(c3ccc4c(c3)OCCO4)C(=O)C21 (stereo not given)
  A: 1%; B: 2.0%; C: 6%; D: 6

COc1ccc(CNC(=O)C(C)N2CCN(S(=O)(=O)c3ccccc3F)CC2)cc1 (stereo not given)
  A: .; B: -0.4%; C: 0%; D: .

Cc1cc(Br)ccc1NC(=S)NC1CCCC1
  A: -10%; B: -0.6%; C: 2%; D: .

Cc1cc(C)c(S(=O)(=O)c2c(C)cccc2C)c(OCC(C)C)n1
  A: 18%; B: -1.5%; C: -6%; D: -12

Cc1ccc(OCCN2C(=O)c3ccccc3C2=O)c(C)c1
  A: -12%; B: -3.2%; C: 0%; D: -5

COc1ccccc1CN1CC(C(=O)NCCN(C)CCc2ccccc2)CCC1=O (stereo not given)
  A: -7%; B: -1.4%; C: -8%; D: .

O=C(c1ccc(S(=O)(=O)Nc2ccccc2)cc1)N1CCCC1
  A: .; B: -0.1%; C: -11%; D: .

CCCCCOc1ccc(NS(C)(=O)=O)cc1
  A: -48%; B: 1.4%; C: 8%; D: -1

CCOC(=O)c1ccc(NC(=O)C2CC(=O)N=C(N)S2)cc1 (stereo not given)
  A: -1%; B: 1.8%; C: -13%; D: -6

CCN(CC)CCNc1ccc2nnc(CCNS(=O)(=O)c3ccc(C)cc3)n2n1
  A: 4%; B: -2.9%; C: 0%; D: 2

COc1cc(C#N)c(NC(=O)CN2CCC(C(N)=O)CC2)cc1OC
  A: 2%; B: 0.0%; C: -14%; D: 3

Cc1ccc(NC(=O)CSc2ncnc3ccccc23)cc1S(=O)(=O)N1CCCCCC1
  A: 1%; B: ?; C: 1%; D: -11

CCN(CC)c1ccc([N+](=O)[O-])cc1C(=O)O
  A: 3%; B: -1.1%; C: -1%; D: 5

COCCNC(=O)Cn1nc(-c2ccc(C)cc2)c2ccccc2c1=O
  A: -1%&-4%; B: 0.5%; C: -5%; D: .

Cc1ccc(C(=O)NNC(=O)c2ccncc2)cc1S(=O)(=O)N1CCOCC1
  A: .; B: -0.9%; C: -10%; D: .

CCCOc1ccc([N+](=O)[O-])c(N)c1
  A: -9%; B: 0.7%; C: -12%; D: -6

CCN(CC)S(=O)(=O)c1cc(C(=O)Oc2cccc(-c3cnc4ccccc4n3)c2)ccc1Br
  A: -61%; B: -5.4%; C: -2%; D: -6

O=C(COc1ncnc2ccccc12)N1CCN(C(=O)c2ccco2)CC1
  A: -9%; B: -0.2%; C: 1%; D: 2

Further results follow.
Screens by letter: A = miR-21 reporter; B = Rango complex inh; C = Rango dissoc inh; D = GLA inh pH 4.5
O=C1OCCN1N=Cc1ccco1
  A: .; B: 1.3%; C: 15%; D: .

CCOc1ccc(Nc2nc(N)nc(CSC(=S)N3CCOCC3)n2)cc1
  A: -51%; B: -0.6%; C: 0%; D: -2

CC(=O)c1cccc(NC(=O)Cn2cnc(S(=O)(=O)N3CCC(C)CC3)c2)c1
  A: 1%; B: 0.0%; C: 1%; D: .

CCCC(=O)C1=C(O)C(C(=O)OC)C(C)(C)CC1=NC (stereo not given)
  A: -6%; B: 8.3%; C: 1%; D: 4

O=C1CCCC/C1=C\Nc1ccc(S(=O)(=O)Nc2cnc3ccccc3n2)cc1
  A: -8%; B: ?; C: ?; D: -5

COc1ccc(/C=N/OCC(=O)NCc2cccs2)c(OC)c1
  A: -9%; B: 1.4%; C: -2%; D: 3

CC(=O)c1cccc(NC(=O)c2cc(S(=O)(=O)N3CCOCC3)cs2)c1
  A: 11%; B: -2.5%; C: -1%; D: .

O=C(NCc1cccnc1)c1ccc(NC(=O)c2ccco2)cc1
  A: -31%; B: 0.8%; C: 3%; D: 2

O=C(Nc1ccc2oc(-c3ccccc3)nc2c1)c1cccnc1
  A: -43%; B: -0.1%; C: 6%; D: 7

Cc1ccc(O)c(C(=O)c2cc(C#N)c3nc4ccccc4n3c2)c1
  A: 0%; B: ?; C: ?; D: 8

Cc1cc(C)c(S(=O)(=O)Nc2ncccc2C)c(C)c1
  A: 4%; B: 1.9%; C: -4%; D: .

Complete entries, quoted from the list. Order of values: miR-21 reporter, Rango complex inh, Rango dissoc inh, GLA inh pH 4.5
Cc1ccc(O)c(C(=O)c2cc(C#N)c3nc4ccccc4n3c2)c1 is listed with 0%, ?, ?, 8
O=C(Nc1ccc2oc(-c3ccccc3)nc2c1)c1cccnc1 is listed with -43%, -0.1%, 6%, 7

Screening results: PubChem, National Center for Advancing Translational Sciences (NCATS)
